# Compound activity (PubChem BioAssay)
# GIV Gai3 FP: inhibitors of GIV peptide binding to Galpha-i3, primary screen, biochemical, fluorescence polarization, FITC-GIV GBA peptide, rat Galphai3; 90 min; active compounds read low; scaled: aluminum fluoride 0%, vehicle 100%; AID 1224905, 2016; 0.42% of 210,000 active; Guanine nucleotide-binding protein G(i) subunit alpha-3 (Rattus norvegicus), P08753; percent of control (FP), % (test concentration not listed);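 active means replicate mean at 85% of control or lower, very high polarization wells dropped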;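 further: lower values mean more displacement of the GIV peptide from Galpha-i3; wells of about 15 µL received 100 nL stock; the first replicate is given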
# Target sequence (P08753 whole entry, looked up): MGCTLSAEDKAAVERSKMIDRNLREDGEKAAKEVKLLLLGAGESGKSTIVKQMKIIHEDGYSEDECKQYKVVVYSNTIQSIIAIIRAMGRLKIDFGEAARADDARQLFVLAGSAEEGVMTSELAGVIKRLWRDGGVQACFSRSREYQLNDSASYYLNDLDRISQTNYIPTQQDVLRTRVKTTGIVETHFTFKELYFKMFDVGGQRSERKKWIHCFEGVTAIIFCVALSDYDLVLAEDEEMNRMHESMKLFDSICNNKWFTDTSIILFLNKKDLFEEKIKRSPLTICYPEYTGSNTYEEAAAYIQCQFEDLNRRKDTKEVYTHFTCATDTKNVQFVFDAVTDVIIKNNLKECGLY
# The depositor's hits bear a star.
compound	GIV Gai3 FP
CCn1cnc2c(-c3cccc(Cl)c3)csc2c1=O	104
Cc1ccc(NC(=O)CSc2nc3ccccc3c(=O)n2CCc2ccc(S(N)(=O)=O)cc2)cc1	160
CCCCN(C)S(=O)(=O)c1ccc2c(c1)N(Cc1noc(C)n1)C(=O)CO2	102
CC(C)(C)C(=O)[C@H]1[C@H](c2ccc(Cl)cc2)C(C#N)(C#N)[C@@H]2c3ccccc3C=CN21	103
CC(=O)C1=NN(c2ccccc2)C2(S1)c1ccccc1C(c1ccccc1)=NN2c1ccccc1 (stereo not drawn)	115
Cc1oc(-c2ccccc2)nc1Cn1nnc(-c2nc(-c3ccc(F)cc3)no2)c1C	103
O=S(=O)(NCCc1n[nH]c(Cc2cccc(F)c2)n1)c1ccc(F)cc1	108
CCCc1cc(C2CCCN2C(=O)Nc2ccccc2)no1 (stereo not drawn)	114

# Quoted at random: 3 entries already listed, in no set order.
compound	GIV Gai3 FP
CC(=O)C1=NN(c2ccccc2)C2(S1)c1ccccc1C(c1ccccc1)=NN2c1ccccc1 (stereo not drawn)	115
O=S(=O)(NCCc1n[nH]c(Cc2cccc(F)c2)n1)c1ccc(F)cc1	108
Cc1ccc(NC(=O)CSc2nc3ccccc3c(=O)n2CCc2ccc(S(N)(=O)=O)cc2)cc1	160

# (next part)
compound	GIV Gai3 FP
COc1ccc(/C=C2/C(C)=C(C#N)c3nc(N)c(C#N)c(C)c32)c(OC)c1	101
COc1ccc(Cl)cc1S(=O)(=O)Nc1cccc(-c2ccc3ccccc3n2)c1	102
Cc1ccc(S(=O)(=O)N2CCn3cccc3C2c2ccccc2)cc1 (stereo not drawn)	103
COCCNC(=O)c1ccc2c(=O)n(Cc3ccc4c(c3)OCO4)c(SCC(=O)NCCC3=CCCCC3)nc2c1	102
COc1cccc(C(=O)N2N=C(C(F)(F)F)CC2(O)c2cccnc2)c1 (stereo not drawn)	110
O=C1N(CCCCN2C(=O)C3(OCCO3)c3ccccc32)c2ccccc2C12OCCO2	99
COc1cccc(-n2c(=S)sc3c(=O)n(-c4ccccc4OC)c(=S)[nH]c32)c1	114
CCOC(=O)c1sc2nc(SCC#N)n(Cc3ccc(OC)cc3)c(=O)c2c1C	111

# Further compounds:
compound	GIV Gai3 FP
CCOc1ccccc1N1C(=O)C2C3c4ccccc4C(C(OC)OC)(c4ccccc43)C2C1=O (stereo not drawn)	111
COc1ccc(N2C(=O)CSC2c2ccc(C3SCC(=O)N3c3ccc(OC)cc3OC)cc2)c(OC)c1 (stereo not drawn)	122
O=C(c1ccccc1)N1CCN(CC(O)Cn2c3ccc(Cl)cc3c3cc(Cl)ccc32)CC1 (stereo not drawn)	112
CCc1nnc(-c2ccsc2)o1	106
CCOC(=O)c1sc2nc(CC(=O)OC)nc(NCCc3ccc(OC)c(OC)c3)c2c1C	105
Clc1cccc(Nc2nc(NCc3ccco3)c3ccccc3n2)c1	101
O=C(O)CCCN1C(=O)C(=O)/C(=C(/O)c2ccccc2)C1c1cccc(F)c1 (stereo not drawn)	104
CCC1CCCCN1S(=O)(=O)c1ccc2c(c1)N(Cc1noc(C)n1)C(=O)CO2 (stereo not drawn)	106

# Remaining list, next part:
compound	GIV Gai3 FP
Fc1cccc(CSc2nc(NCC3CCCO3)c3ccccc3n2)c1 (stereo not drawn)	123
Cc1ccc(-c2nc3sc(CCNS(=O)(=O)c4ccc(Br)cc4)c(C)n3n2)cc1	93
CCOc1cc(C2C3=C(CC(C)(C)CC3=O)OC3=C2C(=O)CC(C)(C)C3)c(Br)cc1O	107
O=S(=O)(c1ccccc1)N1CCOc2ccccc21	109
COc1ccc(C(=O)c2sc3nc(C)cc(-c4cccs4)c3c2N)cc1	107
CC1CCN(C(=O)C2CCN(c3ccc4cc(S(=O)(=O)N5CCCCC5)ccc4n3)CC2)CC1	102
CCOC(=O)C1CCN(c2cnn(-c3ccc(C(=O)O)cc3)c(=O)c2Cl)CC1	101
CC(C)COc1ccc(C2Nc3ccccc3C(=O)N2c2ccc(Cl)c(Cl)c2)cc1 (stereo not drawn)	115

# New compounds follow:
compound	GIV Gai3 FP
O=C(Nc1ccc(-c2nnc(-c3ccccc3)o2)cc1)Nc1ccc(Br)cc1F	107
O=C(CCC(=O)N1Cc2cccn2-c2ccccc21)NCc1ccc(Cl)cc1	105
Cc1ccc2c(c1)C1CN(C)CCC1N2C(=O)CCCN1C(=O)c2ccccc2C1=O (stereo not drawn)	103
COc1ccc(N(CC(O)CN2CCCCC2)S(=O)(=O)c2ccc(C)cc2)cc1 (stereo not drawn)	104
CCOc1ccccc1C(=O)Nc1cc2c(cc1S(=O)(=O)C1CCCCC1)n(C)c(=O)c(=O)n2C	99
O=C(c1cc2nc(-c3ccc4c(c3)OCO4)cc(C(F)(F)F)n2n1)N1CCOCC1	104
Cc1ccc2c(c1)N(C(=O)Cn1cc(-c3nc(-c4ccccc4C)no3)c(=O)c3ccc(C)nc31)CCO2	109
CCCN(CCC)C(=O)c1cc(NS(=O)(=O)c2cc(C)c(C)cc2C)cnc1N1CCNCC1	97

# Next records.
compound	GIV Gai3 FP
O=C(Nn1c(Cc2ccccc2)nc2ccccc2c1=O)c1c(O)c2cccc3c2n(c1=O)CCC3	115
CCOC(=O)c1sc(NC(=O)CSc2nnc(CNC(=O)c3ccc([N+](=O)[O-])cc3)n2C)c(C(=O)OCC)c1C	101
Cc1nc2sccn2c(=O)c1Cl	113
Cc1nnc(-c2c(S(=O)(=O)NC3CCCCCC3)c(C)n(C)c2C)o1	100
CCNc1nc(C(N)=O)c(NC(=O)c2cc(-c3ccccc3)nc3c(C)cccc23)s1	111
COc1ccc(C(=O)Cn2cnc3c(C#N)c4n(c3c2=O)CCCCC4)cc1	114
Cc1ccc(CNC(=O)c2cccnc2SCC(=O)Nc2ccc(Br)cc2F)cc1	110
O=C(N=Nc1c(O)n(Cc2ccc3c(c2)OCO3)c2ccccc12)C1CC1(c1ccccc1)c1ccccc1 (stereo not drawn)	107

# More structures follow:
compound	GIV Gai3 FP
CN1C(=O)C2(OCC(CO)([N+](=O)[O-])CO2)c2ccccc21 (stereo not drawn)	112
CCc1ccc(-c2ccc(=O)n(CCc3nc(-c4cc(OC)cc(OC)c4)no3)n2)cc1	101
COc1ccc(/C=C2\C=C(c3ccccc3)N(c3ccc(C)c(C)c3)C2=O)cc1Br	64*
Cc1ccc(-c2nn3c(=O)cc(CN4CCN(C(=O)c5cccc(Br)c5)CC4)nc3s2)cc1	100
Cc1cccc(CCNC(=O)C2CCN(S(=O)(=O)N3CCOCC3)CC2)c1	111
CCOC(=O)c1cc(C)nc2c1c(=O)n(Cc1nc(-c3ccc(Cl)cc3)oc1C)c(=O)n2C	101
CCOC(=O)c1ccccc1NC(=O)c1cc(C)n(-c2ccc(N3CCCC3)nc2)c1C	96
COc1ccc(CCNC(=O)c2ccc3c(c2)nc(C)n3-c2cccc(F)c2)cc1OC	111

# Shown with each value named: part of the list above.
Cc1ccc(NC(=O)CSc2nc3ccccc3c(=O)n2CCc2ccc(S(N)(=O)=O)cc2)cc1
  GIV Gai3 FP: 160
CCCCN(C)S(=O)(=O)c1ccc2c(c1)N(Cc1noc(C)n1)C(=O)CO2
  GIV Gai3 FP: 102
CC(C)(C)C(=O)[C@H]1[C@H](c2ccc(Cl)cc2)C(C#N)(C#N)[C@@H]2c3ccccc3C=CN21
  GIV Gai3 FP: 103
CC(=O)C1=NN(c2ccccc2)C2(S1)c1ccccc1C(c1ccccc1)=NN2c1ccccc1 (stereo not drawn)
  GIV Gai3 FP: 115

# (next part)
compound	GIV Gai3 FP
Cc1ccc(Cc2nc(CCNS(=O)(=O)c3c(C)cc(C)cc3C)n[nH]2)cc1	108
COC(=O)c1cc(NC(=O)c2cnn3c(C(F)(F)F)cc(-c4ccc(C)cc4)nc23)cc(C(=O)OC)c1	110
O=C(Nc1ccccc1)N1CCN(Cc2cc(=O)n3nc(-c4cccc(F)c4)sc3n2)CC1	100
Cc1cccc(-c2ccc(C(=O)NCCC3=CCCCC3)cn2)c1	104
Cc1ccc2c(c1)NC(=O)C(C(=O)Nc1cccc(F)c1)O2 (stereo not drawn)	102
CCOc1cccc(-c2noc(CCn3nc(-c4ccc5c(c4)OCO5)ccc3=O)n2)c1	107
COc1cccc(NC(=O)Cn2nc3c4sccc4ncn3c2=O)c1	97
Cc1ccc(-n2c(SCC(=O)c3ccc(Br)cc3)nc3[nH]ncc3c2=O)cc1Cl	106

# Continued.
compound	GIV Gai3 FP
COc1ccc(C2=NN(C(=O)CSc3nnc(CNC(=O)c4cccc(OC)c4)n3C)C(c3ccc(C)cc3)C2)cc1 (stereo not drawn)	120
O=S(=O)(Cc1nc(-c2ccccc2)no1)c1ccc(F)cc1	100
COC(=O)C1=C(C(=O)OC)SC2(S1)C(C(=O)OC)=C(C(=O)OC)SC1=C2c2cc(C)cc(C)c2NC1(C)C	103
CC(=O)Nc1ccccc1O[C@@H]1O[C@H](COC(C)=O)[C@@H](OC(C)=O)[C@H](OC(C)=O)[C@H]1NC(C)=O	112
COc1cc(Nc2nc(SCC(=O)NCc3ccco3)nc3ccccc23)cc(OC)c1	107
Cc1cc(C2CCCN2C(=O)c2cc(-c3ccc(F)cc3)on2)no1 (stereo not drawn)	99
O=[N+]([O-])c1ccc(C2NCCc3c2[nH]c2ccccc32)cc1 (stereo not drawn)	112
CC(=O)OC12CC3C(C1C(C)=NN2C(C)=O)C3(C)C (stereo not drawn)	109

# (cont.)
compound	GIV Gai3 FP
O=C1Nc2ccccc2OC1C(=O)N1CCN(c2cccc(Cl)c2)CC1 (stereo not drawn)	99
O=C(Nc1ccc2c(c1)OCCO2)C1CCN(c2cc(C(=O)N3CCCC3)ccn2)CC1	99
CCCCSc1nnc2n(Cc3ccc(OC)cc3)c(=O)c3c(n12)-c1ccccc1CC31CCCCC1	117
CCCCC(=O)Nc1cnc(N2CCN(c3cccc(C)c3)C(C)C2)c(C(=O)O)c1 (stereo not drawn)	113
O=C(NCCC1=CCCCC1)C1CCN(c2cnc(N3CCOCC3)nc2)CC1	99
O=C(Nc1ccc(F)cc1)c1nnc(C2CCCN(C(=O)Nc3ccc(Cl)cc3)C2)s1 (stereo not drawn)	104
COc1ccc(Oc2ccnc(-c3cccc(C(=O)NC4CC4)c3)n2)cc1	106
COc1ccc(C2C3=C(CC(C)(C)CC3=O)NC3=C2C(=O)CC(C)(C)C3)cc1OC	110

# Printed as active in GIV Gai3 FP, of those listed so far:
compound	GIV Gai3 FP
COc1ccc(/C=C2\C=C(c3ccccc3)N(c3ccc(C)c(C)c3)C2=O)cc1Br	64*

# Next part:
compound	GIV Gai3 FP
COc1cc(/C=C2\CCC/C(=C\c3ccc(O)c(OC)c3)C2=O)ccc1O	115
CC1(C)CC(=O)C(C(C2=C(O)CC(C)(C)CC2=O)c2ccc(Cl)c([N+](=O)[O-])c2)C(=O)C1 (stereo not drawn)	109
Cc1nc(-c2cc(S(=O)(=O)N3CCN(c4ccccc4)CC3)c(C)s2)cs1	105
CCOC(=O)C1=c2s/c(=C/c3ccccc3C)c(=O)n2C(N)=C(C#N)C1c1ccccc1C (stereo not drawn)	102
C=CCOC(=O)C1=C(C)NC(=O)NC1c1cn(-c2ccccc2)nc1-c1ccc(Br)cc1 (stereo not drawn)	109
CCOC(=O)C1=CN(Cc2ccc(OC)c(OC)c2)C=C(C(=O)OCC)C1c1cc(Cl)c(O)c(OC)c1	110
Cc1ccc(S(=O)(=O)Nc2ccc3c(c2)c2c(n3S(=O)(=O)c3ccc(C)cc3)CCC2)cc1	113
CC(C)C(=O)Nc1cc(-c2cccc(Br)c2)nn1-c1ccccc1	108

# Remaining list, next part:
compound	GIV Gai3 FP
COc1ccc(-c2cc(C(F)(F)F)n3nc(C(=O)Nc4ccc(OC)c(OC)c4)cc3n2)cc1	106
COc1ccccc1N1CCN(C(=O)c2cc3n(n2)C(C(F)(F)F)CC(c2ccc(C)cc2)N3)CC1 (stereo not drawn)	111
COc1cccc(C2NC(=O)NC(C)=C2C(=O)Nc2ccccc2Cl)c1OC (stereo not drawn)	104
Cc1cc(C)c2c(c1)[C@H]1OCCC[C@H]1C(c1cccc(O)c1)N2 (stereo partly drawn)	96
CC(C)CN1CCN(S(=O)(=O)c2ccc(-c3nnc(C4CC4)o3)o2)CC1	103
CCOC(=O)C1=C(C)N=c2s/c(=C\c3ccc(OCc4ccccc4)cc3)c(=O)n2C1c1ccc(OC)cc1OC (stereo not drawn)	104
CCCc1[nH]n(-c2ccc(F)cc2)c(=O)c1C=NCc1ccc(Cl)cc1	108
CCN(Cc1ccc(C(C)C)cc1)Cc1cc(=O)n2cc(C)sc2n1	115

# (continued)
compound	GIV Gai3 FP
CCn1cnc2cc(-c3noc(-c4cnccn4)n3)ccc21	96
CC12CCC(C(=O)N3CCCCC3)(OC1=O)C2(C)C (stereo not drawn)	104
Cc1cc(C)cc(C(=O)N2CCN(c3nc(C)cc(N4CCOCC4)n3)CC2)c1	108
CC(=O)NC1C(OCc2ccc3ccccc3c2)OC(COC(C)=O)C(OC(C)=O)C1OC(C)=O (stereo not drawn)	126
O=C(Cn1c(=O)c(=O)n(Cc2ccccc2)c2ncccc21)NCc1ccc2c(c1)OCO2	99
CCc1cc(Sc2nnc(N)s2)n2ncnc2n1	105
Cc1nc2ncnn2c(NCC(C)C)c1C	100
O=C(O)C1Cc2c([nH]c3ccccc23)C(c2ccc(OC(F)F)cc2)N1 (stereo not drawn)	107

# (list continues)
compound	GIV Gai3 FP
CCOCCOC(=O)C1=C(C)NC2=C(C(=O)CC(c3cccs3)C2)C1c1ccc(O)c(OCC)c1 (stereo not drawn)	102
Brc1ccc(C2=Nn3c(nnc3-c3ccco3)SC2)cc1	121
O=C1/C(=C/c2c(NCc3ccccc3)nc3ccccn3c2=O)SC(=S)N1CC1CCCO1 (stereo not drawn)	264
COc1ccc(C2(O)CN(c3ccccc3)C3=[N+]2CCCS3)cc1OC (stereo not drawn)	105

# This is a subset; count on the stated rates, not on these rows.
